High-throughput results deposited in PubChem BioAssay by National Center for Advancing Translational Sciences (NCATS).
Resorufin fluor = resorufin region autofluorescence; Compound fluorescence, resorufin region 547/598 nm, buffer; active compounds read high; max dye-equivalent concentration, M; 0.04% of 59,000 active; active = above 10 nM dye equivalent; inconclusive = 1 to 10 nM; inactive = 1 nM or less; a few of its hits are not listed in these tables; further: highest value over a series up to 38 µM
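Intrinsic fluorescence profiled in the resorufin window (ex 547 nm, em 598 nm) after 15 min at room temperature in pH 8.0 Tris buffer (100 mM); responses normalized against a six-point resorufin standard series as dye-equivalent concentration.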
A647 fluor = A647 region autofluorescence. Compound fluorescence, A647 channel (570/671 nm), Tris buffer. AID 592. 59,000 tested, under 10 active. max dye-equivalent concentration, M; active means above 1 µM dye equivalent; inconclusive means 0.1 to 1 µM; inactive means 0.1 µM or less;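 further: values scaled relative to a standard on each plate; highest value over a series up to 38 µM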
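Spectral profiling of library compounds in pH 8.0 Tris: 15 min room-temperature incubation, single ex/em pair (570/671 nm), response normalized to Alexa 647 equivalents.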
A488 autofl = compound fluoresces in the A488 spectral region. 0.1% of 59,000 active. max dye equivalency, M. compound autofluorescence, A488 spectral region, dye equivalency; active compounds read high; active = above 10 nM dye equivalent; inconclusive = 1 to 10 nM; inactive = 1 nM or less; about half of its hits are not listed in these tables;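 further: highest value over a series up to 38 µM; compound alone in buffer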
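Intrinsic compound fluorescence is measured in 100 mM Tris buffer at pH 8.0 following 15 min incubation at room temperature. Intensities at 480 nm excitation/540 nm emission are calibrated to an on-plate A488 concentration series, giving dye-equivalent concentrations.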
AID923 = qHTS Assay for Allosteric/Competitive Inhibitors of Caspase-1: Spectroscopic Profiling in AFC Spectral Region; 1.1% of 75,000 active; AID 923, 2007; compound fluorescence, AFC spectral region (405/520 nm); almost no hit is shown here; Potency, µM (highest dose often 57.5 µM), inactives show at the highest dose fluorescence increase, actives largely listed as activators; active means well fitted activation curve with a large enough effect; inconclusive means small, poorly fitted or top-dose-only effect;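 further: potency means the concentration at half of the fitted maximal effect; 0% is about no effect; scaled to a free AFC standard on each plate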
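Baseline compound fluorescence (AFC region, 405 nm ex/520 nm em) taken from the intercept of kinetic reads with 50 nM caspase-1 and 5 uM Ac-WEHD-AFC; normalized to an on-plate AFC standard curve; compounds titrated up to 57 uM.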
TSHR ag = agonists of human thyroid stimulating hormone receptor | P16473 | HEK293-CNG-TSHR cells (CNG channel as cAMP sensor), membrane potential dye, cAMP | Potency, µM (titrated, usually from 57.1 µM), inactives show top-dose activation, most hits filed as activators | 0.48% of 73,000 active; active = well fitted activation curve of enough size with the parental cells flat; inconclusive = any curve in the parental cells; inactive = parental cells flat and receptor cells flat or falling; further: potency means the concentration at half of the fitted maximal effect; % of control where 0% means no effect; weak receptor curves with flat parental cells got no call and are not listed
Target sequence (P16473 whole entry, looked up): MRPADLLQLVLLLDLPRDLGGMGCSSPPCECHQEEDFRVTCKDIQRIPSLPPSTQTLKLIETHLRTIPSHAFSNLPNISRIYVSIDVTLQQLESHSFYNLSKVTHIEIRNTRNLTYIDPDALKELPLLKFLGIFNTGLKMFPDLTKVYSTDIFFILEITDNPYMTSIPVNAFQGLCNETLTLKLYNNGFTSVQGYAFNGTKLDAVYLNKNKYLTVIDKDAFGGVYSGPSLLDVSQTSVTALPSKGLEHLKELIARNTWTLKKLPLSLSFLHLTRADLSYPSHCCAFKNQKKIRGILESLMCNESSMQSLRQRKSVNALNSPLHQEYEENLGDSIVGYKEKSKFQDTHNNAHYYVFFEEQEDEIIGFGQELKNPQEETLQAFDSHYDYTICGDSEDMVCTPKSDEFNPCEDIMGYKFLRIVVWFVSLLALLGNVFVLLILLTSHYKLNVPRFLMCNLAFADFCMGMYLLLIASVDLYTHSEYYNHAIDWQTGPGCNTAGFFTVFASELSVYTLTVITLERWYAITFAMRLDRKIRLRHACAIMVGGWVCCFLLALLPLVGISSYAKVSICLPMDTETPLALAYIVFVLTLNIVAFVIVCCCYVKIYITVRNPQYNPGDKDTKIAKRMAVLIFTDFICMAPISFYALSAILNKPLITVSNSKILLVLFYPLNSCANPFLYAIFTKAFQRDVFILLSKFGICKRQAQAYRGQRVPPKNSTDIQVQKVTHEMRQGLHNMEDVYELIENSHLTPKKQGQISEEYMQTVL
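HEK 293 cells stably expressing TSHR and a modified CNG channel, with CNG-only parental cells as counterscreen, were preloaded 60 min at room temperature with membrane potential dye containing 100 uM RO 20-1724. Compound exposure was 30 min, and depolarization was read as fluorescence at 590 nm.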
Starred values were filed as active, the others as inactive; i = inactive; ? = inconclusive; · = not tested or not shown; [ ] = another dose, or the depositor's remark.

SMILES | Resorufin fluor | A647 fluor | A488 autofl | AID923 | TSHR ag
CC1CN(C(=O)c2cccs2)CCN1C(=O)c1cccs1 (centres undefined) | i | 4.5e-08 | i | 1.1% | ?
O=C(O)c1cnc2ccccc2n1 | i | 3.6e-08 | i | -1.9% | 6%
COc1ccc(C(=O)N2c3ccccc3CC2C)cc1OC (centres undefined) | i | 1.1e-08 | i | 2.1% | 20%
CCOC(=O)c1ccc(N2C(=O)C3CC=CCC3C2=O)cc1 (centres undefined) | · | · | · | -0.3% | 9%
Cn1c(CCN2CCCCCC2)nc2cc(NC(=O)Nc3ccccc3)ccc21 | i | 1e-09 | i | 1.3% | 14%
CC(C)COC(=O)c1ccc(NC(=O)C2C3CCC(C3)C2C(=O)O)cc1 (centres undefined) | · | · | · | 1.9% | -1%
COc1ccc(-n2ncc3c(NCCCn4ccnc4)ncnc32)cc1 | i | 4.4e-09 | i | · | ·
O=C(NCCO)c1scc2c1OCCO2 | i | 8.1e-09 | i | 0.8% | ?
CCOc1ccccc1C1C(C#N)=C(N)SC(N)=C1C#N | i | 9e-09 | i | 5.8% | 5%
CC1(C)CC(=O)C2=C(C1)NCN(CCCN1CCOCC1)C2 | i | 1e-09 | i | 2.5% | 24%
O=C(CSc1nnc(-c2cccnc2)n1-c1ccccc1)Nc1ccc2c(c1)OCO2 | i | 1e-09 | i | 0.8% | ?
CC(C)(C)NC(=O)Cn1nnc(-c2ccc(Cl)cc2)n1 | i | 1e-09 | i | 0.0% | 2%
O=C(CS(=O)(=O)Cc1ccccc1)NCC1CCCO1 (centres undefined) | i | 7.4e-09 | i | 0.6% | 10%
CSc1nc(N2CCOCC2)c2c(c1C#N)CCCCC2 | i | 3.8e-08 | i | 1.2% | ?
COc1ccc(NC(=O)CCCNS(=O)(=O)c2cccs2)cc1 | i | 8.9e-09 | i | -0.5% | 3%[11.4 µM]
FC(F)(F)c1cccc(N2CCN(Cc3ccoc3)CC2)c1 | i | 1e-09 | i | 0.1% | 10%
Cc1ccccc1-c1ccc2ncnc(NCc3cccs3)c2c1 | i | 1e-09 | i | 0.6% | ?
Nc1ncnc2c1ncn2[C@@H]1O[C@@H](CO)[C@H](O)[C@H]1O | i | 2.4e-08 | i | -1.3%[25.7 µM] | -19%[25.6 µM]
CCn1ncc(Br)c1C(=O)N(C)C12CC3CC(CC(C3)C1)C2 | i | 1e-09 | i | -1.5% | ?
COC(=O)/C(=C1/Oc2cc(C)oc(=O)c2S1)C(F)(F)F | i | 3.1e-08 | i | · | ·
CCCn1c(C(O)c2ccc3c(c2)OCO3)nc2ccccc21 (centres undefined) | i | 8.7e-09 | i | -0.7% | 11%
Cc1ccc(C)c(C(=O)C(C)OC(=O)c2cccn2C)c1 (centres undefined) | i | 1e-09 | i | 0.7% | ?
Fc1ccc(-c2cc(C(F)(F)F)nc(-n3cncn3)n2)cc1 | i | 6.3e-09 | i | -0.5% | ?
O=C(COC(=O)CCC(=O)Nc1nccs1)NCc1ccco1 | i | 3.4e-08 | i | -3.8% | -7%
COc1ccc(F)c(C2C(C#N)=C(N)Oc3n[nH]c(C(C)(C)C)c32)c1 (centres undefined) | i | 3.1e-09 | i | -0.1% | 0%
The results go on:
SMILES | Resorufin fluor | A647 fluor | A488 autofl | AID923 | TSHR ag
Cc1cc(F)ccc1OC1C=CC(c2ccc3c(c2)OCO3)OC1CO (centres undefined) | · | · | · | -0.7%[11.5 µM] | -4%[11.4 µM]
O=C(OCC(=O)N1CCCCCC1)c1cccs1 | i | 1e-08 | i | -0.6% | 5%
CN1C(=O)C(=C2CCCCCC2)SC1=S | i | 6.5e-09 | i | 2.0% | ?
CCOC(=O)C1CCCN(C(=O)c2cn(C)c3ccc(S(=O)(=O)N(C)C)cc3c2=O)C1 (centres undefined) | · | · | · | -1.4% | -2%
CN(CC(=O)N1CCc2ccccc21)S(=O)(=O)c1cccc2cccnc12 | · | · | · | 0.4% | -14%
O=C(Nc1ccc(S(=O)(=O)N2CCc3ccccc32)cc1)c1ccco1 | i | 4.1e-08 | i | 1.5% | 18%
COc1ccc(N/C=C2/CCCCC2=O)cc1 | i | 1.7e-09 | i | -0.8% | 3%
O=C(COC(=O)CCc1c[nH]c(=O)[nH]1)Nc1ccccc1 | i | 1e-09 | i | 10% | -2%
O=C(O)c1ccc(S(=O)(=O)N=Nc2c(O)[nH]c3ccccc23)cc1 | i | 2.4e-08 | i | -0.2%[11.5 µM] | 4%[11.4 µM]
CCC(CC)C(=O)NCCc1cc2ccc(OC)cc2[nH]c1=O | i | 1e-09 | i | 0.0% | 11%
CCn1nccc1C(=O)Nc1nccs1 | i | 1e-09 | i | 5.9% | 1%
O=c1cc(CN2CCN(C/C=C/c3ccccc3)CC2)c2cc(O)ccc2o1 | i | 2.6e-08 | i | -0.9% | -7%
CCOC(=O)CSc1nc2ccccc2c(=O)n1CCCCCC(=O)NCc1ccco1 | i | 1e-09 | i | -2.2% | ?
COc1ccc(Cn2c(SCC(=O)NCc3ccco3)nc3ccsc3c2=O)cc1 | i | 2e-08 | i | 2.3% | ?
C[C@H]1CCCC=CC2C[C@H](OC(=O)CN(C)C)C[C@@H]2[C@@H](O)/C=C\C(=O)O1 (some centres undefined) | i | 1.4e-08 | i | 0.4%[11.5 µM] | 3%[11.4 µM]
COC(=O)[C@@]1(Cc2ccccc2)[C@H]2c3cc(C(=O)N4CCCC4)[nH]c3C[C@H]2CN1C(=O)c1ccccc1 | · | · | · | -3.2% | 8%
O=Cc1ccc(OC2C=CC(C#Cc3ccccc3)OC2CO)cc1 (centres undefined) | · | · | · | 0.5%[11.5 µM] | -10%[11.4 µM]
COc1ccc(Nc2cccccc2=O)cc1 | · | · | · | -3.1% | 4%
O=c1oc2ccccc2c(O)c1/C=N/c1nc(-c2ccc(O)c(O)c2)cs1 | i | 1e-09 | i | -1.1%[11.5 µM] | 6%[11.4 µM]
CCOC(=O)CSc1nncc2ccc(OC)c(OC)c12 | i | 1e-09 | i | 1.3% | 26%
Cc1cccc2cc(C(c3nnnn3CC3CCCO3)N3CCOCC3)c(=O)[nH]c12 (centres undefined) | i | 1e-09 | i | 0.4% | 15%
CCCSc1nnc(Cc2cc(=O)[nH]c(=O)[nH]2)n1-c1cc(C)ccc1C | i | 2.9e-08 | i | -1.1% | 10%
CCOc1ccc(CCNc2cc(C)nc3ncnn23)cc1OCC | · | · | · | 0.9% | 9%
Oc1oc(-c2ccco2)nc1C=Nc1cccc(Cl)c1 | i | 1e-09 | i | · | ·
COc1ccccc1-n1cnc2cc(NS(=O)(=O)c3ccccc3)ccc21 | i | 1e-09 | i | 0.5% | ?

Complete entries from above. Order of values: Resorufin fluor, A647 fluor, A488 autofl, AID923, TSHR ag
Profile of O=C(COC(=O)CCc1c[nH]c(=O)[nH]1)Nc1ccccc1 = i, 1e-09, i, 10%, -2%
Profile of C[C@H]1CCCC=CC2C[C@H](OC(=O)CN(C)C)C[C@@H]2[C@@H](O)/C=C\C(=O)O1 (some centres undefined) = i, 1.4e-08, i, 0.4%[11.5 µM], 3%[11.4 µM]
Profile of O=C(OCC(=O)N1CCCCCC1)c1cccs1 = i, 1e-08, i, -0.6%, 5%

(cont.)
SMILES | Resorufin fluor | A647 fluor | A488 autofl | AID923 | TSHR ag
CCCCn1c(SCC(=O)N2CCC(C)CC2)nc2cc(S(N)(=O)=O)ccc21 | i | 3e-09 | i | -1.7% | -4%[11.4 µM]
O=C1C2CC=C(Cl)CC2C(=O)N1CCc1c[nH]c2ccccc12 (centres undefined) | · | · | · | 0.1% | 8%
Cc1ccc(N2CCCCn3c2nc2c3c(=O)n(CC(=O)O)c(=O)n2C)cc1 | i | 1e-09 | i | -0.1% | -4%
O=C(OCCN1CCCC1)C1(c2ccccc2)CCCC1 | i | 1e-09 | i | 0.5% | 4%
CCOC(=O)c1c(C)c(C(=O)N2CCN(C(=O)c3ccco3)CC2)c(C)n1C | i | 1.1e-09 | i | -0.3% | -4%[11.4 µM]
CC1CN(C(=O)c2ccc(COCC(F)(F)F)o2)CC(C)O1 (centres undefined) | i | 1e-09 | i | -0.1% | 2%
CCCN(CCC)CCCNC(=O)c1cc2c(=O)n(C)c3ccccc3c2n1C | · | · | · | 0.2% | ?
C=CCn1c(SCC#N)nc2c(c1=O)C(C)(C)Cc1ccccc1-2 | i | 2.5e-09 | i | · | ·
CCCCn1c(CN(C)Cc2ccccc2)nc2c1c(=O)n(C)c(=O)n2C | i | 1e-09 | i | 0.2% | ?
CC1(O)N(Cc2ccccc2)C(=O)OC12CCCCC2 (centres undefined) | · | · | · | 0.4% | 16%
COCCCN1C(=O)c2ccc(C(=O)NCc3ccco3)cc2C1=O | i | 5.2e-08 | i | -0.6% | ·
COC(=O)c1ccc(-c2sc3nc(N4CCOCC4)c4c(c3c2N)CC(C)(C)OC4)o1 | i | 9.4e-09 | i | · | ·
Cc1ccc2cc(CCNC(=O)C(C)C)c(=O)[nH]c2c1C | · | · | · | -1.1% | -8%
CC1(C)Cc2c(c(-c3ccco3)[nH]c(=O)c2C#N)CO1 | i | 5.5e-09 | i | 8.5% | -8%
OCC1OC(n2nnc3ccccc32)C(O)C(O)C1O (centres undefined) | i | 1e-09 | i | 1.4% | 0%
CCOC(=O)c1cccc(NC(=O)Cn2c(CC(=O)N3CCCC3)nc3ccccc32)c1 | i | 4e-08 | i | -0.3% | -4%
CC1(c2ccc(Cl)cc2)NC(=O)N(CC(=O)N2CCCC2)C1=O (centres undefined) | i | 5.4e-09 | i | -1.8% | 2%[11.4 µM]
CCOC(=O)CC(=O)CSc1ccc2nnc(-c3cccc(F)c3)n2n1 | i | 4.4e-09 | i | -0.8% | 6%[11.4 µM]
CCN(CC)CCNC(=O)Cn1nc(-c2ccc(C)cc2)ccc1=O | i | 3.5e-08 | i | -0.5% | -1%
CC(=O)[C@]1(O)CC[C@@H]2[C@H]3C[C@@H](C)C4=CC(=O)CC[C@@]4(C)[C@H]3[C@@H](O)C[C@]21C | i | 1e-09 | i | -1.8%[11.5 µM] | ?
O=C1CC(Cc2ccc(Cl)cc2)C(=O)N1c1ccccn1 (centres undefined) | i | 6.4e-09 | i | -1.3% | 0%
Cn1c(=O)[nH]c(=O)c2c1nc(SCCN1CCCCC1)n2CCCc1ccccc1 | i | 3.3e-08 | i | -2.2% | 8%
CC1CCCCN1C(=O)c1ccc(S(=O)(=O)N2CCCCC2C)cc1 (centres undefined) | · | · | · | -1.2% | 22%
CCC(CC)NC(=O)c1cc(OC)c(OC)c(OC)c1 | · | · | · | 1.0% | 3%
COc1cccc2c(=O)n(CC(=O)N3CCCc4ccccc43)ccc12 | · | · | · | -1.6% | 11%
C[C@H]([C@@H](N)C(=O)N[C@@H](C(=O)O)[C@@H]1O[C@H](n2ccc(=O)[nH]c2=O)[C@@H](O)[C@H]1O)[C@@H](O)c1ccc(O)cn1 | · | · | · | 5.3% | -1%
COc1ccc(CCN2CNc3c(c(=O)n(C)c(=O)n3C)C2)cc1 | i | 9.3e-09 | i | -0.3% | 0%
CC(=O)NCCNc1nc(-c2ccc(C(=O)N(C)C)cc2)nc2ccccc12 | i | 4.2e-08 | i | -0.1% | 0%

Laid out differently: entries from further up.
canonical_smiles	Resorufin fluor	A647 fluor	A488 autofl	AID923	TSHR ag
CC(=O)NCCNc1nc(-c2ccc(C(=O)N(C)C)cc2)nc2ccccc12	i	4.2e-08	i	-0.1%	0%
OCC1OC(n2nnc3ccccc32)C(O)C(O)C1O (centres undefined)	i	1e-09	i	1.4%	0%

Entries from the list above containing a tert-butyl group (two):
SMILES | Resorufin fluor | A647 fluor | A488 autofl | AID923 | TSHR ag
CC(C)(C)NC(=O)Cn1nnc(-c2ccc(Cl)cc2)n1 | i | 1e-09 | i | 0.0% | 2%
COc1ccc(F)c(C2C(C#N)=C(N)Oc3n[nH]c(C(C)(C)C)c32)c1 (centres undefined) | i | 3.1e-09 | i | -0.1% | 0%

Some of the compounds tested (hit frequency here may not be typical).
